# NPYLR7 agonist = mosquito NPYLR7 agonism. HEK293T NPYLR7/Galpha15, GCaMP6s calcium fluorescence. activation, % at 10 µM. 270,000 tested, 0.15% active. AID 1259423; in the data active = activation above about 40%;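 note: 0% = vehicle and 100% = reference agonist at the receptor; some compounds past the cut are filed as inactive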
# NPYLR7 agonist max-min = second read-out of NPYLR7 agonist, no call of its own (marks repeat the call); activation, %; measured here: Max-Min RFU normalised activation; some inactives read as strong as hits;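 span of the calcium signal over five minutes; 0% = vehicle and 100% = native peptide agonist; compound fluorescence can raise it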
# * hit, by the source's call; & = joins results of further samples. Not all compounds are listed (hit frequency here may not be typical).
# Sample of the layout, four compounds:
# Values run as follows: NPYLR7 agonist	NPYLR7 agonist max-min
CCCCCNC(=O)c1ccc(CSc2nc(Cl)cc(N(CCc3ccccc3)Cc3ccccc3)n2)cc1
 : 19	24
COc1cc2c(cc1OC)CN(C1CCCN(Cc3ccc(Cl)s3)C1)CC2 (stereo not given)
 : 4&-2	2&-2
O=C(Nc1cccc(C(F)(F)F)c1)Nc1ccc2nc(Cc3ccccc3)nn2c1
 : 10	-1
CC(C)N1CCNC(=O)C1CC(=O)NCc1csc2ccc(Cl)cc12 (stereo not given)
 : 19	4

# All compounds of this part, from the first entry:
# Values run as follows: NPYLR7 agonist	NPYLR7 agonist max-min
CCCCCNC(=O)c1ccc(CSc2nc(Cl)cc(N(CCc3ccccc3)Cc3ccccc3)n2)cc1
 : 19	24
COc1cc2c(cc1OC)CN(C1CCCN(Cc3ccc(Cl)s3)C1)CC2 (stereo not given)
 : 4&-2	2&-2
O=C(Nc1cccc(C(F)(F)F)c1)Nc1ccc2nc(Cc3ccccc3)nn2c1
 : 10	-1
CC(C)N1CCNC(=O)C1CC(=O)NCc1csc2ccc(Cl)cc12 (stereo not given)
 : 19	4
O=S(=O)(c1ccc2c(c1)OCCCO2)N1CCCc2cc(F)cc(F)c21
 : -5	-6
Cc1ccc(-n2nc(-c3ccccc3)cc2C(=O)NC(Cc2ccccc2)c2ccccc2)cc1 (stereo not given)
 : 3	13
COc1cccc(C)c1NC(=O)c1cccc(CN2CC[C@H](O)C2)c1
 : 6	2
O=C(O)c1cccc2c1CCCN2C(=O)Cc1cccs1
 : 3	2
CCCC(=O)N(C)CC(=O)Nc1ccc(Br)cc1C
 : 3	3
CCCCc1ccc(C(=O)N(CCOC)C(CC)c2nc3ccccc3c(=O)n2-c2ccc(C)c(C)c2)cc1 (stereo not given)
 : -9	-9
Clc1ccc(-c2noc(CCc3ccccc3)n2)cc1
 : -3	-5
COc1cc(C(=O)N2CCN(Cc3ccc(C(F)(F)F)cc3)CC2)cc(OC)c1OC
 : 8	2
COc1ccc(C(=O)Nc2ccc3oc(-c4cccc(Br)c4)nc3c2)cc1[N+](=O)[O-]
 : -5	-14
Cc1[nH]c(=O)[nH]c(=O)c1N(CCO)CCO
 : -10	-12
CCSc1nnc(NC(=O)c2ccc(C)cc2)s1
 : -7	-11
CCCc1cc(CNC2CCN(C(=O)C3CCCO3)CC2)on1 (stereo not given)
 : 3	8
CCOc1ccc2c(c1)c(=O)c(C(=O)c1ccc(C)cc1)cn2CC(=O)Nc1ccc(OC)cc1
 : -3	-5
CN1CCN(C2=C(Cl)C(=O)c3ccccc3C2=O)CC1
 : 16	9
COCCCNC(=O)C(NC(=O)c1ccc(OC)cc1)C1CCN(C(=O)c2ccccc2OC)CC1 (stereo not given)
 : -9	-13
O=C(CSc1nc2[nH]ncc2c(=O)[nH]1)N1CCC(Cc2ccccc2)CC1
 : -1	-3

# Next section
# Values run as follows: NPYLR7 agonist	NPYLR7 agonist max-min
Nc1cc2[nH]c(=O)[nH]c2cc1Br
 : 0	-3
C=CCN(CC(=O)N1N=C(c2ccccc2Cl)CC1c1cc(OC)ccc1OC)C1CCCC1 (stereo not given)
 : 12	13
Nc1cc(-c2cccc(C(F)(F)F)c2)nn1-c1ccc(C(=O)Nc2ccc(Oc3ccccc3)cc2)cc1
 : -6	-4
C=CCCC(O)CN(Cc1nc2sc3c(c2c(=O)[nH]1)CCC3)Cc1ccco1 (stereo not given)
 : 2	2
Cc1cccc(-n2c(=O)c3ccccc3n3c(SCC#N)nnc23)c1C
 : 15	18
CC(C)c1cc(CN(C)Cc2cnc3c(-c4ccccc4)cnn3c2)on1
 : 11	8
O=C(CN1C(=O)c2ccccc2C1=O)OCCN=C1NS(=O)(=O)c2ccccc21
 : -3	-4
CCOC(=O)c1ccc(NC(=O)N2CCc3cc(OC)c(OC)cc3C2c2ccccc2)cc1 (stereo not given)
 : 18	9
CCCCc1nc(N2CCCN(C(=O)Nc3ccc(OCC)cc3)CC2)c2c(-c3ccccc3)noc2n1
 : 14	4
COc1ccc(C(=O)NC(C)C23CC4CC(CC(C4)C2)C3)cc1S(N)(=O)=O (stereo not given)
 : 10	5
Cc1ccc(C)c(OCC(=O)NCc2nc(-c3cccnc3)no2)c1C
 : 6	-7
Cc1ccc(S(=O)(=O)NC(=O)C2(C)CCN2C(=O)COc2ccc(Cl)cc2)nc1 (stereo not given)
 : 0	-4
CCCCCN(CCCCC)C(=O)C(CCC(=O)O)NC(=O)c1ccc(Cl)c(Cl)c1 (stereo not given)
 : -3&4&2&-2	-8&-1&-12&-6
O=C1CCCC1CCc1ccccc1 (stereo not given)
 : 24	13
CC(C)c1cnn2c(NCc3ccccc3)cc(NCCCCCCN)nc12
 : -7	-15
Cc1ccc(C(=O)NCCS(=O)(=O)c2ccccc2)cc1C
 : 1	1
CC(NC(=O)C(C1CCCC1)N1CCN(C(=O)c2cccc([N+](=O)[O-])c2)CC1)c1ccccc1 (stereo not given)
 : -5	-1
O=C(NCCN1CCN(C(=O)C2CCC2)CC1)Nc1ccc(F)cc1
 : 9	6
CS(=O)(=O)c1c(Cl)cccc1NC(=O)NCc1ccsc1
 : 0	17
Cc1ccc(CCC(=O)Nc2cn(C)c(=O)cc2C)c(C)c1
 : -5	-5

# Random excerpt: 4 compounds from above
# Values run as follows: NPYLR7 agonist	NPYLR7 agonist max-min
CC(C)c1cc(CN(C)Cc2cnc3c(-c4ccccc4)cnn3c2)on1
 : 11	8
C=CCN(CC(=O)N1N=C(c2ccccc2Cl)CC1c1cc(OC)ccc1OC)C1CCCC1 (stereo not given)
 : 12	13
Cc1ccc(C(=O)NCCS(=O)(=O)c2ccccc2)cc1C
 : 1	1
CCCCc1nc(N2CCCN(C(=O)Nc3ccc(OCC)cc3)CC2)c2c(-c3ccccc3)noc2n1
 : 14	4

# The list goes on:
# Values run as follows: NPYLR7 agonist	NPYLR7 agonist max-min
CN(CCc1ccccn1)Cc1csc(-c2ccc(Cl)cc2)n1
 : 16	23
COCCN1C(=O)c2oc3ccccc3c(=O)c2C12C(=O)N(C)c1ccccc12 (stereo not given)
 : 7	7
CC(C)(O)CC(O)c1ccc(O)c2c(=O)c3c(O)c4c(cc3oc12)OC1OC=CC41O (stereo not given)
 : -3	-11
CCN(CC)C(=O)n1cnc(-c2ccccc2)c1-c1ccccc1
 : -10	-17
CCOC(=O)c1cc(-c2cccc(NC(=O)c3ncoc3-c3ccc(OC)cc3)c2)n(-c2cccc(C)c2)n1
 : 14	10
COc1ccc(-n2nc(C(C)C)c(CN(CC(O)c3ccccc3)C(C)C)c2Oc2ccccc2)cc1 (stereo not given)
 : -2	5
CCN1CC(c2nc3ccccc3n2Cc2ccc(Cl)c(Cl)c2)CC1=O (stereo not given)
 : 0	1
Cc1nc(CN2CCN(C(=O)C(NC(=O)CC(C)C)C(C)C)CC2)n[nH]1 (stereo not given)
 : 3	3
CN1CC2(CCCN(c3ncccc3C(N)=O)CC2)OC1=O (stereo not given)
 : 4	16
CN1CCC(=NNC(=O)c2ccccc2NS(=O)(=O)c2cccs2)CC1
 : 2	1
CC1Sc2ccc(-c3ccco3)cc2N(Cc2ccc(Cl)cc2)C1=O (stereo not given)
 : 9	5
COc1ccc2cc(CNC(=O)NC(C)c3ccc(F)c(F)c3)ccc2c1 (stereo not given)
 : 1	-2
COc1ccc(-c2nnc3n(C)c4c(=O)[nH]c(=O)n(C)c4n23)cc1
 : 9	3
O=C(NC12CC3CC(CC(C3)C1)C2)N1CCCN(c2nc(Cc3ccccc3)ns2)CC1
 : -5	5
c1ccc(C(c2ccccc2)c2noc(CN3CCCN(Cc4cccs4)CC3)n2)cc1
 : 8	-3
O=C(NCCc1nc(-c2ccccn2)no1)c1cccc2ccnn12
 : 3	1
CN(CCN1C(=O)CSC1c1ccc(C(F)(F)F)cc1)C(=O)c1cccc(F)c1 (stereo not given)
 : -3	3
CCOC(=O)NC(CNCc1ccnc(-c2ccccc2)n1)C1CC1 (stereo not given)
 : 6	5
CN(C)c1ccc(NC(=O)C2CC2)cc1CN(C(=O)c1ccco1)C1CCCCC1
 : 21	16
O=C1/C(=C/c2cccc(Br)c2)Oc2c1ccc(O)c2CN1CCN(CCO)CC1
 : 52*	44*

# More results:
# Values run as follows: NPYLR7 agonist	NPYLR7 agonist max-min
Cc1ccc(NC(=O)c2cnc3cc(C(=O)N(C)C)n(C)c3c2)cc1Cl
 : -5	-5
CC(Cn1ccnc1)NCc1noc(C2CCCC2)n1 (stereo not given)
 : 5	-7
COC(=O)c1ccc(CN2CCN(c3ccc(F)c(Cl)c3)C(=O)C2C)cc1 (stereo not given)
 : 1	1
Cc1ccc(C(=O)C(C)OC(=O)Cc2ccc(Cl)cc2)cc1 (stereo not given)
 : -2	-5
CC(=O)c1cccc(N=Nc2c(-c3ccccc3)[nH]n(-c3ccccc3)c2=O)c1
 : -4	-8
Cc1ccnn1CCC(=O)N1CCNCC1C(=O)N1CCOCC1 (stereo not given)
 : -4	-5
O=S(=O)(c1c(F)cccc1F)N1CCC(c2cn(Cc3cccc(F)c3)c3ccccc23)CC1
 : 6	2
O=C1CSC(=N/N=C\c2ccc(-c3ccc([N+](=O)[O-])cc3)o2)N1
 : 1	-6
CN(C)Cc1c(O)ccc2c(=O)c(-c3ccc4c(c3)OCCO4)coc12
 : -6	-11
CCC(=O)N(Cc1ccc(F)cc1)Cc1cc(NC(=O)Nc2ccc(C(F)(F)F)cc2)ccc1N(C)C
 : 2	14
Cc1ccc(-c2cc(C(=O)NC(Cc3ccccc3)c3ccccc3)n(-c3cccc([N+](=O)[O-])c3)n2)cc1C (stereo not given)
 : 1	11
Cc1ccccc1OCCN(C#N)c1nc(N(C)C)nc(N(C)C)n1
 : 1	-2
COCCn1c(N2CCN(Cc3ccc(F)cc3)CC2)nc2c1c(=O)[nH]c(=O)n2C
 : 7	4
N[C@@H](Cc1cnc[nH]1)C(=O)NCc1ccc2sccc2c1
 : 5	3
Cc1cccc(C(=O)N(CC2CCN(C3Cc4ccccc4C3)CC2)CC2CCCO2)n1 (stereo not given)
 : 5	0
Cc1cccc(COn2cccc(C(=O)Nc3cccc(C)c3)c2=O)c1
 : 6	20
Cc1ccc(N(Cc2ccccc2)C(=O)c2ccc(C)nc2)cc1
 : -1	-3
CO/N=C(/C(=O)NCCCCc1ccccc1)c1csc(NC=O)n1
 : 11	5
Cc1c(C(=O)NCc2cccs2)sc(=O)n1Cc1ccccc1
 : 2	-2
CCN(CC)c1onc(-c2ccccc2)c1CN(Cc1ccco1)C(=O)c1ccc2c(c1)OCO2
 : 8	9

# Remaining list, next part.
# Values run as follows: NPYLR7 agonist	NPYLR7 agonist max-min
COc1cc2nc(N3CCN(C(=O)OCc4ccccc4)C(C(=O)NC(C)(C)C)C3)nc(N)c2cc1OC (stereo not given)
 : 2	12
O=C(Nc1ccnn1C1CCN(Cc2ccc3cc(F)ccc3n2)CC1)c1ccccc1
 : -9	-11
Cc1cc(F)ccc1CCNC(=O)Nc1c(C)noc1C
 : 0	-1
COC(=O)c1ccc(C=CC(=O)c2ccc(Cl)c(Cl)c2)cc1
 : 1	1
NC(N)=NC(N)=NCc1ccc(Cl)cc1
 : 1	16
O=C(Oc1ccc(-c2nc3ccccn3c2NC2CCCCC2)cc1)c1ccc(Cl)cc1
 : -1	13
CC(=O)Nc1ccc(C(=O)N(Cc2ccccc2F)C2CC2)cc1
 : 1	1
Cc1cccn2cc(CCNC(=O)c3cccs3)nc12
 : -6	1
Nc1nc(N2CCCCC2)nn1C(=O)CC1C=CCC1 (stereo not given)
 : 4&10	0&6
O=C(N=c1ccccn1Cc1ccccc1)c1ccc(=O)[nH]n1
 : 8	9
CCN(CC)C(=S)S
 : -15	-27
COc1ccccc1-c1nc2ccccn2c1NC1CCCCC1
 : 5	6
NC(=O)COc1cccc(CN2CCC3(CCNC(=O)CC3)CC2)c1
 : 7	1
CC(=O)N1C(C(=O)O)CSC1c1ccco1 (stereo not given)
 : 0	-2
Cc1cccn2c(=O)nc(SCC(=O)N3CCCCC3)nc12
 : 1	2
Cc1nc(C(=O)NCCOc2ccccc2)cs1
 : 7	-3
CC(C)c1ccc(C2c3c(n(C)c(=O)n(C)c3=O)N=C3COC(=O)C32)cc1 (stereo not given)
 : -14	-18
Cc1cc(N2CCCN(Cc3ccc(OC(F)F)cc3)CC2)ccn1
 : 0	1
O=C(Cn1nc(-c2ccco2)c2sc(N3CCCC3)nc2c1=O)N1CCCc2ccccc21
 : -5	-10
CC1CCc2c(C(=O)NC(C)C)csc2C1 (stereo not given)
 : 6	6

# The list goes on.
# Values run as follows: NPYLR7 agonist	NPYLR7 agonist max-min
O=C(c1cc(-c2ccco2)nn1-c1ccccc1)N1CCCC(O)C1 (stereo not given)
 : -2	-5
CCN(CC)S(=O)(=O)c1ccc(NC(C)=O)cc1
 : 8	4
COc1ccc(NC(=O)c2ccn(C)n2)cc1
 : 3	-10
Cc1ccc(S(=O)(=O)NCCOc2ccc(-c3ccccc3)nn2)cc1
 : -5	-10
Cc1ccc(C(CC(=O)NCc2ccc(F)cc2)c2cn(C)c3ccccc23)cc1 (stereo not given)
 : 26	31
COc1ccc(OC)c(CN2CCCn3cccc3C2c2ccc(Cl)cc2)c1 (stereo not given)
 : -1	4
O=C(CSc1nc(=O)n(CCCO)c2c1CCCC2)NC1CCCCC1
 : -12	-17
O=C(NCCC1=CCCCC1)C1CCC(CNc2c(N3CCOCC3)c(=O)c2=O)CC1 (stereo not given)
 : 5	0
Cc1ccc(C2=NN3C(=N)/C(=C/c4cccs4)C(=O)N=C3S2)cc1
 : -1	-1
CC1=NN(c2ccc(Cl)c(Cl)c2)C(=O)/C1=C/c1cccs1
 : 10	16
Cc1ccc(C=NNC(=S)NC(C)C)o1
 : -10	-14

# Whole records from above:
# `Cc1ccc(C=NNC(=S)NC(C)C)o1` across the screens: NPYLR7 agonist = -10; NPYLR7 agonist max-min = -14
# `Cc1ccc(C(CC(=O)NCc2ccc(F)cc2)c2cn(C)c3ccccc23)cc1` (stereo not given) across the screens: NPYLR7 agonist = 26; NPYLR7 agonist max-min = 31
# `CC1=NN(c2ccc(Cl)c(Cl)c2)C(=O)/C1=C/c1cccs1` across the screens: NPYLR7 agonist = 10; NPYLR7 agonist max-min = 16

# Compound activity deposited in PubChem BioAssay by Fisher Drug Discovery Resource Center.
